Screens deposited in PubChem BioAssay by several laboratories.
Autofluor counter: counter-screen for toxin protease inhibitors: compound fluorescence; fluorescence intensity (concentration not given with the values); AID 624483; hit rate 3.1% among 360,000; compound autofluorescence counterscreen, microsphere flow cytometry; active compounds read high;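 active = at least 3 SD above the mean of all compounds, about 16000 in these data; inconclusive = too few beads counted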;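 also: 100 nL of 1 mM stock went into each well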
PrP 5UTR inh: inhibition of PrP 5' UTR reporter expression; cell-based PrP 5' UTR mRNA reporter, plate reader; inhibition, % (concentration not given with the values); hit rate 0.35% among 340,000;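 active = every replicate at 50% or more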;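 also: 0 = median of the neutral control wells; tested in H4 reporter cells; numbers are from one replicate; inactives centre near -14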
ugtP null kill: growth inhibition of S. aureus ugtP deletion strain. hit rate 0.54% among 330,000. AID 1259309. S. aureus RN4220 ugtP deletion, OD600 growth, 16 h; some inactives read as strong as hits. growth inhibition, % (test concentration not listed);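 active = z-score under -3 and OD600 up to 0.15 on both plates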;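 also: plate controls were untreated wells for no effect and antibiotic for full effect; wells of about 80 µL received 100 nL stock; the first replicate is given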
BJeLR lethal: BJeLR cell viability loss; AID 1554; BJeLR (HRASV12) viability, CellTiter-Glo ATP luminescence, 48 h; reference of the scale not given here; hit rate 0.17% among 300,000; inhibition, % (test concentration not listed);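 active = replicate mean above 50%; inconclusive = above 50% but judged a plate artefact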;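 also: 50 nL library stock added to about 25 µL; numbers are from one replicate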
Mtb hypoxia rep: reduces hypoxia-regulated biosensor signal in M. tuberculosis; M. tuberculosis hypoxia-regulated fluorescent reporter, fluorescence; fluorescence inhibition, % (test concentration not listed); hit rate 0.1% among 300,000; AID 1159583;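 active = 35 to 45% if threefold the growth effect, above 45% if 1.5-fold the growth effect; inactive = the rest, general growth blockers included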;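 also: wells of about 50 µL received 100 nL stock; 0% = vehicle wells and 100% = reference inhibitor wells; whole bacteria with a GFP reporter of the hypoxia response; strong numbers were not always called active; many hits fall short of the cut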
Sa RN4220 lethal: kills Staphylococcus aureus RN4220. S. aureus RN4220 growth, OD600, 16 h. inhibition, % (concentration not given with the values). hit rate 0.33% among 330,000. AID 1259311;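 active = z-score of -3 or lower and OD600 up to 0.18 on both plates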;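 also: plate controls were untreated cells for no effect and reference antibiotic for full effect; stock transfer was 100 nL into about 80 µL; one replicate is shown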
Mtb hypoxia rep growth: second read-out of Mtb hypoxia rep, no call of its own (marks repeat the call); growth inhibition, %; measured here: M. tuberculosis growth (absorbance);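 0% = vehicle and 100% = reference antibiotic; read after six days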
Active calls of the source: *; u = inconclusive; x = not tested or not shown; & = joins results of further samples.

SMILES	Autofluor counter	PrP 5UTR inh	ugtP null kill	BJeLR lethal	Mtb hypoxia rep	Mtb hypoxia rep growth	Sa RN4220 lethal
CCOC(=O)Cc1csc(NC(=S)NC(=O)c2cc(OC)c(OC)c(OC)c2)n1	4004	-15	2	1	9	8	2.0
Cc1csc(=O)n1CCC(=O)OCC(=O)Nc1ccc(Cl)cn1	6141	-23	5	3	-1	7	1.1
O=C(Oc1cccc(Cl)c1)N1CCOCC1	4238	-15	-1	-7	5	-1	1.0
CCN1CCc2nc3ccccc3c(C(=O)Nc3ccc(C#N)cc3)c2C1	3749	-66	-3	0	12	1	1.0
COc1cc(C(=O)NCc2nnc(SCC(=O)Nc3nc4ccc(C)cc4s3)o2)cc(OC)c1OC	1960	-33	x	5	x	x	x
Cc1cccc(-n2ncc3c(NCCc4ccc(S(N)(=O)=O)cc4)ncnc32)c1	5753	-5	10	-7	2	7	0.0
O=C(CCC(=O)c1ccc(F)cc1)Nc1cccc(S(=O)(=O)Nc2cccc(Cl)c2)c1	2061	-21	-32	-1	6	-2	-5.1
Cc1ccc([N+](=O)[O-])cc1S(=O)(=O)N(C(=O)c1ccncc1)c1ccc2oc3c(c2c1)CCCC3	1992	-6	46	9	-1	8	-7.1
Cc1ccc(NC(=O)Nc2nc3ccc(S(C)(=O)=O)cc3s2)cc1	u	-16	0	x	7	-3	1.4
COC(=O)c1sccc1NC(=O)Nc1cccc([N+](=O)[O-])c1	4016	-10	4	0	13	4	4.3
CCC(C)C1CN=C(N)N1CCc1cccc2ccccc12 (centres undefined)	x	x	-6	x	-7	2	-10
COc1ccc(OCCCC(=O)Nc2ccc(S(=O)(=O)N3CCOCC3)cc2)cc1	2974	-20	5	x	3	-6	4.7
Cc1ccc(NC(=O)CSc2nnc(C)n2-c2ccccc2)cc1	4620	-7	3	1	x	x	6.1
CCOC(=O)C1=C(C)N=c2s/c(=C\c3cccc(OCC(=O)O)c3)c(=O)n2C1c1ccccc1OC (centres undefined)	3803	-8	x	5	x	x	x
CC(=O)Nc1cccc(NC(=O)c2ccc3c(c2)CCN3S(=O)(=O)c2ccccc2)c1	5234	4	8	-2	-5	8	-3.6
Cc1ccc(C(=O)COc2nc(C)cc(C)c2C#N)cc1	22443*	1	-4	-1	0	8	2.4
COc1cccc(C2CC(c3ccccc3Cl)n3nnnc3N2)c1 (centres undefined)	2522	-1	-7	9	13	9	4.8
Cn1c(NC(=O)c2cccnc2)nc2ccccc21	3292	-45	x	-9	x	x	x
CCCN1CCN(c2nc(-c3cccs3)nc3ccccc23)CC1	2765	3	4	-6	-5	8	-1.2
CC(C)c1nnc(NC(=O)c2ccc(N3C(=O)CCC3=O)cc2)s1	5838	8	0	8	5	10	5.6
O=C1NC(=O)N(Cc2ccccc2)C(=O)/C1=C/N1CCCc2ccccc21	1990	-10	6	-3	3	1	-0.4
COc1ccc(C2(C(=O)N3CCOCC3)CCOCC2)cc1OC	2628	-19	6	-4	22	4	-0.4
COc1ccc(C(=O)/C=C/c2ccsc2)cc1CSCC(=O)O	u	-16	13	-5	2	-5	5.1
COc1ccccc1CN1C(=O)c2ccccc2C1C(=O)NC1CCC(C)CC1 (centres undefined)	3955	-9	9	7	-4	17	3.4
Cc1ccc(-c2nnc(N3CCN(C(=O)c4cccs4)CC3)c3ccccc23)cc1	3839	-32	5	-5	4	0	-0.6
CCOC(=O)c1cccc(NC(=O)C2CCCN(S(=O)(=O)c3c(C)n[nH]c3C)C2)c1 (centres undefined)	4643	-18	11	5	x	x	-4.6
O=C(CSc1ncn[nH]1)Nc1nsc(-c2ccccc2)n1	2420	4	4	13	10	-8	2.6
Cc1ccccc1C=NNC(=O)Cn1nnc(N)n1	x	x	-1	x	-2	-1	7.1
CC1Cc2ccccc2N1C(=O)CSc1nnc(-c2ccccc2)c(-c2ccccc2)n1 (centres undefined)	16388*	1	0	-6	7	-1	-1.0
O=C(Cc1ccccc1)OCCN1CCOCC1	1938	-10	4	9	-6	-1	3.6
O=C(OCc1nc2ccccc2s1)c1ccco1	3890	-34	7	-6	2	3	12
CCOC(=O)CCn1c(=S)n(CCC(=O)OCC)c2ccccc21	4547	-22	-2	-2	-11	5	0.5
O=C(CN(Cc1ccccc1)S(=O)(=O)c1ccc2c(c1)OCCO2)N/N=C/c1cccc(Br)c1	2038	-23	x	-5	x	x	x
COC(=O)c1ccc(CN2CCN(CC(C)C)C(CCO)C2)cc1 (centres undefined)	4646	-11	13	9	-1	4	2.5
Cc1cccc(C(=O)OCC(=O)NC(=O)NCc2ccccc2)c1	2932	-23	5	x	-9	-9	2.2
COc1ccc(C(C#N)Nc2ccccc2C)cc1 (centres undefined)	4050	-8	7	1	13	-1	5.0
CCOC(=O)N1CCN(C(=O)CNC(=O)Cc2ccc(Cl)cc2)CC1	2998	-26	9	-12	9	4	-5.7
Cc1cc(/C(N)=N/OC(=O)Nc2cccc(C(F)(F)F)c2)no1	5180	-27	-32	-4	1	0	-1.8
CCc1ccc(/C=N/NC(=O)c2cc(-c3ccccc3OC)nc3ccccc23)s1	4636	9	x	1	x	x	x
COc1ccc(CN2CCSCC2)c(OC)c1C	3608	-47	11	12	0	8	4.8
Cn1cnnc1-c1cccc(NS(=O)(=O)c2ccc(N3CCCC3=O)cc2)c1	8829	-24	-5	-2	-1	8	5.7
Cc1ccccc1N(Cc1cc(=O)[nH]c2ccccc12)C(=O)CCl	3768	-1	x	12	x	x	x
CNCCCc1ccccc1	7525	-7	6	-1	1	-3	1.1
Cc1ccccc1Cn1c(CN2CCN(C(=O)c3ccco3)CC2)nc2c1c(=O)n(C)c(=O)n2C	4688	14	-13	-7	1	4	-17
Cc1csc(NC(=O)C(C)Oc2ccc(Cl)cc2C)n1 (centres undefined)	5235	-10	-3	x	9	7	-7.8

Shown with each value named: 3 of the compounds above.
SMILES: COc1ccc(CN2CCSCC2)c(OC)c1C
  Autofluor counter: 3608; PrP 5UTR inh: -47; ugtP null kill: 11; BJeLR lethal: 12; Mtb hypoxia rep: 0; Mtb hypoxia rep growth: 8; Sa RN4220 lethal: 4.8

SMILES: Cn1cnnc1-c1cccc(NS(=O)(=O)c2ccc(N3CCCC3=O)cc2)c1
  Autofluor counter: 8829; PrP 5UTR inh: -24; ugtP null kill: -5; BJeLR lethal: -2; Mtb hypoxia rep: -1; Mtb hypoxia rep growth: 8; Sa RN4220 lethal: 5.7

SMILES: CCOC(=O)N1CCN(C(=O)CNC(=O)Cc2ccc(Cl)cc2)CC1
  Autofluor counter: 2998; PrP 5UTR inh: -26; ugtP null kill: 9; BJeLR lethal: -12; Mtb hypoxia rep: 9; Mtb hypoxia rep growth: 4; Sa RN4220 lethal: -5.7

Sorted by SMILES length (ascending): some entries from above.
SMILES	Autofluor counter	PrP 5UTR inh	ugtP null kill	BJeLR lethal	Mtb hypoxia rep	Mtb hypoxia rep growth	Sa RN4220 lethal
COc1ccc(C(C#N)Nc2ccccc2C)cc1 (centres undefined)	4050	-8	7	1	13	-1	5.0
CCCN1CCN(c2nc(-c3cccs3)nc3ccccc23)CC1	2765	3	4	-6	-5	8	-1.2
Cc1csc(=O)n1CCC(=O)OCC(=O)Nc1ccc(Cl)cn1	6141	-23	5	3	-1	7	1.1
CC1Cc2ccccc2N1C(=O)CSc1nnc(-c2ccccc2)c(-c2ccccc2)n1 (centres undefined)	16388*	1	0	-6	7	-1	-1.0

The list goes on.
SMILES	Autofluor counter	PrP 5UTR inh	ugtP null kill	BJeLR lethal	Mtb hypoxia rep	Mtb hypoxia rep growth	Sa RN4220 lethal
COC(=O)c1c(C)[nH]c(C(=O)C(Cc2ccccc2)N(C)C)c1C (centres undefined)	3584	-14	3	4	x	x	4.0
C=CCc1cc(C)ccc1OCC(O)CN1CCN(c2ccccc2)CC1 (centres undefined)	8912	-15	-5	-3	19	8	4.7
CCC(Cc1ccccc1)NS(=O)(=O)c1c(C)nc2scc(C)n2c1=O (centres undefined)	5800	-5	1	8	0	10	2.6
CCCSc1nsc(SCCC)c1C(N)=O	2983	-14	-1	-9	8	6	4.5
O=[N+]([O-])c1ccccc1Nc1ccccc1[N+](=O)[O-]	4187	-5	0	x	5	7	0.4
CCNC(=S)NS(=O)(=O)c1ccc(CC)cc1	10652	-4	1	-8	-5	-8	3.0
COc1ccc(Nc2nc(N)nc(CSC(=S)N3CCOCC3)n2)cc1	2672	-39	8	-2	-1	9	6.3
OCC1(CCOc2ccccc2)CCN(Cc2ccccc2C(F)(F)F)CC1	3151	-9	-5	-6	1	-5	0.2
O=C(CSc1nc(-c2ccccc2)c(-c2ccccc2)[nH]1)NCCN1C(=O)CSC1=O	2882	-8	2	5	5	-3	0.5
Cc1cccc(Nc2nc(N)c([N+](=O)[O-])c(N3CC(C)OC(C)C3)n2)c1 (centres undefined)	3857	-10	9	3	4	7	3.4
CCC(=O)N(NC1=NS(=O)(=O)c2ccccc21)S(=O)(=O)c1ccc(C)cc1	4406	5	3	1	16	3	1.4
CCc1nc2ccccc2n1CCC(C)C	2594	4	3	-9	-3	-1	0.5
CCOC(=O)NC(Nc1nnc(C)s1)(C(=O)OCC)C(F)(F)F (centres undefined)	3871	-19	5	-4	x	x	1.6
COc1ccccc1NS(=O)(=O)c1cccc(C(=O)NN=C(C)c2ccncc2)c1	x	x	9	x	-2	1	3.6
CCN(CC)Cc1cc(O)c(CN(CC)CC)cc1O	4105	-26	-4	6	11	5	5.2
COCCNC(=O)c1cn(Cc2c(F)cccc2Cl)nn1	2454	4	5	7	16	10	-3.3
COc1cc(S(=O)(=O)Nc2ccc(C(=O)NCC(=O)O)cc2)ccc1NC(C)=O	4086	-29	4	-19	-9	-10	4.4
CC(C)(C)c1ccc(C(=O)NCCCNC(=O)c2ccccn2)cc1	3504	-13	13	0	6	-12	-2.1
COc1cc(C(=O)NCCC2=CCCCC2)cc(OC)c1OC	22928*	-15	3	-6	7	12	3.2
CC(=NO)c1c(C)c2ccccc2n1C	x	x	4	x	2	9	3.8
COc1ccc(-c2cc(C(F)(F)F)nc(SCCC(=O)N3CCCC3)n2)cc1	4671	-20	6	1	15	12	5.1
Cc1c(CCOC(=O)CC23CC4CC(CC(C)(C4)C2)C3)sc[n+]1Cc1ccc([N+](=O)[O-])cc1	8940&2416	-14&-18	100*	-6	9&-6	1&3	100*
Cc1cccc(OCc2nc(-c3cccnc3)no2)c1	7674	-16	7	6	12	2	9.1
Cc1ccc(-c2nnc3n2N=C(c2ccccc2Br)CS3)cc1	2760	1	-7	0	7	5	17
CCOc1ccc(N(CC(=O)NC2CCCCC2)C(=O)CCCC(=O)Nc2ccccn2)cc1	3064	-24	2	-11	-6	-8	2.9
Cc1cc(C)n2nc(C(=O)NCCc3ccccc3)nc2n1	4795	-21	-2	-1	x	x	2.4
C=CCn1ccc2c([N+](=O)[O-])cccc2c1=O	3317	2	2	1	11	6	3.8
CC(CCc1ccccc1)NC(=O)c1cncc(Br)c1 (centres undefined)	3638	-9	4	-11	x	x	0.3
COc1cc(Nc2ccccn2)cc(C(=O)Nc2cccc(C(F)(F)F)c2)c1	3294&4234	-34	-5	5	19	8	-8.5
Cc1cnc(CNC(=O)c2ccc3oc(Cc4ccc(Cl)cc4)nc3c2)cn1	5097	-10	3	9	13	14	3.0
CCn1c(SCC(=O)Nc2nc(C)cs2)nnc1-c1cccnc1	17501*	-13	5	1	2	6	1.3
OC(CNCc1ccccc1)COCc1ccc(Cl)cc1 (centres undefined)	4286	-21	7	3	21	1	-1.0
COc1ccccc1NS(=O)(=O)c1cccc(C(=O)NN=Cc2ccccc2OCC(=O)O)c1	x	x	2	x	11	3	2.1
CN(C)CCCNC(=O)c1cc(C(=O)Cc2ccc(Cl)cc2)c[nH]1	3727	-6	4	1	4	3	1.4
c1ccc(Oc2ccc3ccccc3n2)cc1	2571	-47	13	6	11	8	5.1

Look-ups from above.
ugtP null kill, OC(CNCc1ccccc1)COCc1ccc(Cl)cc1 (centres undefined) → 7
Mtb hypoxia rep, COc1ccccc1NS(=O)(=O)c1cccc(C(=O)NN=Cc2ccccc2OCC(=O)O)c1 → 11
